# Mtb betalactam: beta-lactam sensitization of Mtb H37Rv, H37Rv | M. tuberculosis H37Rv growth with meropenem, percent inhibition; hits of this screen are not shown here | inhibition, % at 25 µM | 330,000 tested, 0.27% active;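 active = about 74% or more and at least 40 points above the plate without the antibiotic, then above 30% in a dose series; inconclusive = first-round hits that could not be retested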;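 also: growth measured after seven days incubation then overnight dye step; 0% = bacteria only wells and 100% = bacteria with antibiotic; twin plates without the antibiotic show which effects depend on it; some results filed as inactive read as strong as hits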
# Active calls of the source: *; ? = inconclusive. The list is partial; the hit share may differ from the screen's.
SMILES,Mtb betalactam
Cc1ccccc1-c1nn(-c2ccccc2)cc1C(=O)NCC(c1ccco1)N1CCCC1 (centres undefined),-0.5
COc1ccc(NC(=O)Nc2ccc3c(c2)C(=O)N([C@H](C)CO)C[C@H](C)[C@@H](CN(C)C(=O)NC(C)C)O3)cc1,1.7
Nc1ncnc2c1ncn2[C@@H]1O[C@H](CNS(=O)(=O)CCCCl)[C@@H](O)[C@H]1O,-7.0
CCNc1c(NS(=O)(=O)c2ccc(Br)s2)c(=O)oc2ccccc12,3.2
COc1ccc(C(=O)N2CCC2)cc1S(=O)(=O)NCc1ccc(Cl)cc1,1.8
Cc1nc(SCc2nc3ccc([N+](=O)[O-])cc3[nH]2)c2oc3ccccc3c2n1,-2.0
C[C@@H]1CN([C@@H](C)CO)C(=O)c2cccc(NC(=O)C3CCOCC3)c2O[C@H]1CN(C)S(=O)(=O)c1ccc(Cl)cc1,-3.1
O=C(C[C@@H]1C/C=C\CCCC(=O)OC[C@@H]2CCCN2C1=O)N[C@@H](CO)Cc1ccccc1,-4.4
C[C@@H]1CCC2[C@@H](C)C(=O)O[C@@H]3OC4(C)CCC1[C@@]23OO4 (some centres undefined),-2.5
Cc1c(C=NNC(=O)c2ccc(Br)cc2)c2ccccn2c1C(=O)c1ccncc1,-6.5
NS(=O)(=O)c1cccc(NC(=O)COC(=O)Cn2cc(C(F)(F)F)ccc2=O)c1,5.0
C#CCCc1cocc1/C=[N+](\[O-])c1ccc(C(=O)OCC)cc1,92.8
Cc1ccc(NC(=O)CN(C)C(=O)C(C)N2CCN(Cc3ccccc3C)CC2)cc1 (centres undefined),-7.5
Cc1cc(C)n2nc(C(=O)OCC(=O)c3ccccc3)nc2n1,-11.1
CCCn1c(=O)c(C(=O)NNC(=O)c2ccccc2[N+](=O)[O-])c(O)c2ccccc21,?
C=CC[C@@H](CC(=O)OC(C)(C)C)C(=O)OC[C@@H]1CCCN1C(=O)[C@@H](CC=C)CC(=O)N[C@@H](CO)Cc1ccccc1,4.1
C[C@H](CO)N1C[C@H](C)[C@@H](CN(C)C)Oc2c(NC(=O)CCC(F)(F)F)cccc2C1=O,-16.4
Cc1cc(C(=O)CSc2nnc(C3CC3)n2C2CC2)c(C)n1C(C)C,2.5
NC(=O)N/N=C/c1ccc([N+](=O)[O-])o1,31.4
CCOc1ccc(S(=O)(=O)Nc2ccccc2C(=O)N(C)C2CCN(C)CC2)cc1,-0.8
Cc1ccc(CN(C)C(=O)c2cc(Br)c(Br)s2)o1,-8.6
CC(NCC(=O)Nc1ccccc1C(=O)NC1CC1)c1cccs1 (centres undefined),-10.1
Cc1cc(NC(=O)C(C)SCC(=O)OCc2ccc(Cl)cc2Cl)no1 (centres undefined),6.2
O=C(c1ccccc1F)N1CCN(Cc2ccc3c(c2)OCO3)CC1,1.0
O=C(COC(=O)COc1ccc(Br)cc1)NCc1ccccc1,2.4
# Additional entries follow.
SMILES,Mtb betalactam
CN(CC(=O)Nc1cccc(F)c1)C(=O)C1(c2ccccc2)CC1,-2.5
COc1cc(C(=O)N[C@H](C(=O)NC2CCCc3ccccc32)C(C)C)cc(OC)c1OC (some centres undefined),-2.0
Cc1ccc(C(=O)OCC(=O)NCCc2ccc(F)cc2)cc1S(=O)(=O)N1CCOCC1,-4.2
CCN1CCC[C@H]1CNC(=O)c1c(OC)ccc(Br)c1OC,-2.7
NS(=O)(=O)c1cccc(NC(=O)c2cccc(S(=O)(=O)N3CCCCCC3)c2)c1,-4.5
O=C(COC(=O)c1cncc(Br)c1)NC12CC3CC(CC(C3)C1)C2,-9.2
Cc1ccc(C(=O)N(C)CCOc2ccccc2)cc1S(=O)(=O)N1CCCCC1,-6.8
COC(=O)C1=C(C)NC(C)=C(C(=O)OCC2CCCO2)C1c1ccc(Cl)c([N+](=O)[O-])c1 (centres undefined),?
Cc1ccc(NC(=O)C2COc3ccccc3O2)cc1S(=O)(=O)N1CCOCC1 (centres undefined),-9.8
O=C(Nc1ccc(S(=O)(=O)N2CCCCC2)cc1)C1CCCCC1,0.8
CC(=O)c1ccc(S(=O)(=O)N(C)CC(=O)Nc2ccc(C)cc2)cc1,-3.0
COc1cc(NC(=O)c2ccc(S(=O)(=O)N(C)c3ccccc3OC)cc2)cc(OC)c1,8.3
CCCCN1C(=O)C(=O)N(CC(=O)Nc2ccccc2C(C)=O)C1=O,-7.1
CCOc1ncccc1C(=O)OCC(=O)NCc1ccc(C(=O)OC)cc1,-3.2
Cc1nc(SCC(=O)N2CCCC2=O)nc(C)c1C,-6.4
CSCCC(NC(=O)c1ccco1)C(=O)NCC1CCCO1 (centres undefined),-1.0
C#CCOCCOCCOCCNc1nc(N2CCOCC2)nc(N2CCN(C(=O)[C@H](CO)n3cc([C@@H](N)C(C)C)nn3)CC2)n1,-7.4
COc1ccccc1C(CNC(=O)C1CC(=O)N(Cc2ccccc2)C1)N1CCCC1 (centres undefined),-4.0
COc1ccc(S(=O)(=O)N2CCCCCC2)cc1C(=O)NCc1ccc(C)cc1,-8.3
COc1cc([C@H]2OC[C@H]3[C@@H]2CO[C@@H]3c2cc(OC)c(O[C@@H]3O[C@H](CO)[C@@H](O)[C@H](O)[C@H]3O)c(OC)c2)cc(OC)c1O[C@H]1O[C@@H](CO)[C@H](O)[C@@H](O)[C@@H]1O,4.8
Cc1ccc(S(=O)(=O)N2[C@@H](c3ccc(F)cc3)C(C(=O)O)=CC[C@H]2c2cccc(Cl)c2)cc1,-14.0
COc1ccc(NC(=O)COC(=O)CCc2ccc(S(=O)(=O)N3CCOCC3)cc2)cc1OC,5.4
O=C(COC(=O)c1ccc(Br)c(S(=O)(=O)N2CCOCC2)c1)NC1CC1,-1.8
COc1ccc(CNC(=O)[C@]2(C)CCC[C@@]3(C)C4CC[C@@]5(C)C[C@]4(CCC32)CC5=O)cc1 (some centres undefined),-4.7
C[C@@H]1CN([C@@H](C)CO)C(=O)c2cc(NC(=O)C3CC3)ccc2O[C@H]1CN(C)C,-0.8
# Going on with the list.
SMILES,Mtb betalactam
O=C(/C=C/c1ccc(Cl)cc1Cl)OCC(=O)N1CCCC1,38.9
CS(=O)(=O)N1CCN(C(=O)CSc2ccccc2)CC1,-4.5
Cc1nc2ccc(NS(=O)(=O)c3ccc(F)c(F)c3F)cc2s1,-5.9
COc1ccc([C@H]2Cc3cccc(O)c3C(=O)O2)cc1O,-2.4
CCN(C[C@H]1N[C@@](CC)(C(=O)OC)[C@H]2C(=O)N(Cc3ccccc3)C(=O)[C@@H]12)S(=O)(=O)c1ccc(-c2ccccc2)cc1,3.9
C[C@@H](NC(=O)c1nc[nH]c1C(=O)N1CCN(c2ccccc2)CC1)c1ccccc1,1.0
CC(=O)Nc1cc(C(=O)CSc2nnc(C3CC3)n2C2CC2)ccc1O,-5.2
COc1ccccc1NS(=O)(=O)c1ccc(C(=O)NCCCN2CCCC2=O)cc1,3.0
COc1ccccc1C(=O)NC(=O)COC(=O)Cc1ccc(F)cc1,-9.2
COc1ccc(CNC(=O)CC2C[C@H](C(=O)N3CCCCC3)[C@@]3(C)c4[nH]c5ccccc5c4CCN3C2=O)cc1OC (some centres undefined),7.8
COc1ccc(Cl)cc1NC(=O)CSc1sc2c(O)cc(=O)[nH]c2c1C#N,-0.4
Cc1ccccc1C(=O)N1CCC(C(=O)Nc2ccc(C)c(S(=O)(=O)N3CCCCC3)c2)CC1,2.8
O=C(C[C@@H]1C/C=C\C[C@H](NC(=O)OCC2c3ccccc3-c3ccccc32)C(=O)OC[C@@H]2CCCN2C1=O)NCCO,6.4
CCN(C(=O)CSc1nnc(SC(C)C)s1)C1CCS(=O)(=O)C1 (centres undefined),-1.5
O=c1[nH]cnc2c1sc1nc(C(F)F)cc(-c3ccccc3)c12,0.5
CC(C)(C)OC(=O)C[C@H]1C/C=C\C[C@H](CC(=O)N[C@H](CO)Cc2ccccc2)C(=O)N[C@@H](Cc2ccccc2)COC1=O,9.6
Cn1nnnc1Sc1ncnc2scc(-c3cc4ccccc4o3)c12,100.0
Cc1ccc(NC(=O)c2ccc(Cn3cc(Cl)cn3)o2)c(C)c1,?
Cc1cc(C)c(NC(=O)CN(C)C(=O)CNC(=O)c2cccs2)c(C)c1,-8.1
Cc1ccc(S(=O)(=O)NCCNc2ccc(Br)c(C)c2)cc1,4.7
O=C(Cn1nnc(-c2ccc(F)cc2)n1)Nc1cccc(S(=O)(=O)N2CCCC2)c1,10.9
Cc1ccc(C(=O)Nc2cccc(C(F)(F)F)c2)cc1NC(=O)c1[nH]cnc1C(N)=O,-3.9
CN1CCN(C2CCN(Cc3ccc(O)c4ncccc34)CC2)CC1,-15.7
N#CCC(=O)Nc1ccc(C(=O)OCC(=O)NC2CCCc3ccccc32)cc1 (centres undefined),0.4
O=C1CN(C(=O)COC(=O)c2ccc([N+](=O)[O-])s2)c2ccccc2N1,22.1
# Going on with the list:
SMILES,Mtb betalactam
COc1ccc(NC(=O)COC(=O)CCNC(=O)c2ccco2)cc1Cl,-1.9
CC(C)CN(C(=O)COC(=O)c1ccc(C#N)cc1)C1CCS(=O)(=O)C1 (centres undefined),-6.9
Cc1cc(C(=O)NN=Cc2c(C)[nH]c3ccccc23)c(C)o1,-0.7
COC(=O)C1=C(c2ccc(OCc3ccccc3)cc2)C[C@@H]2CC[C@H]1N2C(=O)NCCN1CCOCC1,-7.4
COc1ccc(CCN2CC(C(=O)Nc3nnc(Cc4ccccc4)s3)CC2=O)cc1OC (centres undefined),5.8
O=C(CCSc1ccc(F)cc1)NNC(=O)c1ccc([N+](=O)[O-])cc1,-2.5
OCCOc1ccccc1,0.1
O=C(/C=C/c1c(Cl)cccc1Cl)N1CCOCC1,5.7
O=C(Nc1cc(Cl)cc(Cl)c1)c1cccnc1,-2.6
NC(=O)c1ccc(NC(=O)C2CCCC2)cc1,-0.6
COc1ccc(S(=O)(=O)NC2CCN(Cc3ccccc3)CC2)cc1NC(C)=O,3.7
COc1ccccc1N(CC(=O)Nc1cc(S(=O)(=O)N(C)C)ccc1C)S(=O)(=O)c1cccs1,-14.0
Cc1ccc(S(=O)(=O)N2CCOCC2)cc1NC(=O)COC(=O)c1ccc(Cl)s1,1.1
Cc1cc(C(=O)COC(=O)COc2ccccc2C#N)c(C)n1CC1CCCO1 (centres undefined),0.4
Cc1ccc(C(C)C)cc1OCC(=O)NCCCn1ccnc1,2.1
CN(CC(=O)N1CCCCCC1)S(=O)(=O)c1ccccc1,-2.7
Cn1c(N)c(C(=O)CSc2nc(C3CC3)n(-c3ccccc3)n2)c(=O)n(C)c1=O,6.1
CC(Sc1ccc(S(=O)(=O)N2CCOCC2)cn1)c1ccccc1Cl (centres undefined),-5.4
Cc1nn(CSc2c(F)c(F)c(F)c(F)c2F)c(C)c1[N+](=O)[O-],3.4
CCOc1ncccc1C(=O)Nc1cccc(S(=O)(=O)N2CCOCC2)c1,-4.4
O=C(COC(=O)CCN1C(=O)C2CC=CCC2C1=O)NCCc1ccc(F)cc1 (centres undefined),6.1
CCn1ccnc1CNC(=O)c1ccc2oc(C(C)C)nc2c1,-19.6
Cn1c(N)c(C(=O)COC(=O)c2ccccc2C(F)(F)F)c(=O)n(C)c1=O,3.0
c1ccc(-c2csc(Nc3ccccn3)n2)cc1,8.6
Cc1ccc(CNC(=O)COC(=O)c2cc(C)oc2C)cc1,2.2
# Following part.
SMILES,Mtb betalactam
C=CCN1c2ccc(Br)cc2C(=O)CS1(=O)=O,5.6
Cc1noc(C)c1C(=O)OCC(=O)Nc1ccc(N2CCOCC2)cc1,-2.9
COc1ccc(C(C(=O)NC2CCCCC2)N(Cc2ccco2)C(=O)c2ccccn2)c(OC)c1 (centres undefined),-1.8
CC(C)CN(C(=O)C1=NN(c2ccccc2)C(=O)CC1)c1c(N)n(Cc2ccccc2)c(=O)[nH]c1=O,-7.8
Cc1cc(C(=O)N/N=C/c2ccc(N(C)C)o2)cs1,-7.7
COC(=O)C1=C(c2ccc(-c3ccccc3)c(F)c2)C[C@@H]2CC[C@H]1N2C(=O)NCc1ccco1,3.1
CCC(=O)NC(c1cc(Cl)c2cccnc2c1O)C(C)C (centres undefined),10.3
O=C(COC(=O)c1ccc(Cl)nc1)Nc1ccc2c(c1)CCC2,6.2
O=C1CCc2cc(S(=O)(=O)Nc3ccccc3Cl)ccc2N1,-5.9
CC1CCN(C(=O)CN2C(=O)C(=O)N(C(C)C)C2=O)c2ccccc2S1 (centres undefined),-1.5
CC(C)(C)OC(=O)C[C@@H]1C/C=C\C[C@H](CC(=O)N(CCO)Cc2ccccc2)C(=O)N[C@@H](c2ccccc2)COC1=O,-2.4
CCN(CC(=O)Nc1ccc(OC)cc1)C(=O)c1ccc(N2C(=O)CCC2=O)cc1,-3.0
C/C(=N\NC(=O)c1cc2ccccc2cc1O)c1ccc(C)o1,93.7
Cc1ccc(NC2CCCN(C(=O)CCc3scnc3C)C2)cc1C (centres undefined),-8.5
COC(=O)C1=C(c2ccc(C(C)=O)cc2)C[C@@H]2CC[C@H]1N2C(=O)NC1CCCCC1,7.3
CCc1ccc(/C(C)=N/NC(=O)c2c[nH]c3ccccc23)s1,-2.6
C=CCNc1oc(-c2ccc(-c3ccccc3)cc2)nc1C#N,98.8
CN(C)C(=O)c1ccc(NC(=O)COC(=O)c2cc3c(s2)CCCCC3)cc1,95.7
O=C1CN(C(=O)COc2ccccc2Cl)c2ccccc2N1,-5.2

# Screening data from PubChem BioAssay.
